HPGD inh = qHTS Assay for Inhibitors of HPGD (15-Hydroxyprostaglandin Dehydrogenase); 15-hydroxyprostaglandin dehydrogenase [NAD(+)] (Homo sapiens), P15428; purified HPGD, NADH fluorescence kinetic, PGE2 substrate; Potency, µM, inactives show at the top dose activity change, negative = inhibition, most hits filed as inhibitors; 4.3% of 150,000 active; active = well fitted inhibition curve with a large enough effect (not every such curve was filed as active); inconclusive = small, poorly fitted or top-dose-only effect, or another doubt; inactive = no such curve, though single readings can be large or run the other way;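 note: top concentration of the series not given in the record; plate controls included wells without enzyme; inactives centre near -10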
Target sequence (P15428 whole entry, looked up): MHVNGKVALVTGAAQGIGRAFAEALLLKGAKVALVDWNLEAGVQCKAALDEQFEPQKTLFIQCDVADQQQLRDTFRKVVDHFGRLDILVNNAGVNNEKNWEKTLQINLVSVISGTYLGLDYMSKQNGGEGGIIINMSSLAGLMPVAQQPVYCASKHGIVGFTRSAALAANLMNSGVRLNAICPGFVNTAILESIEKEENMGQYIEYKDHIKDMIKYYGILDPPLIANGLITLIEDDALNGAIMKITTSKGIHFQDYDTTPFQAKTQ
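20 nM HPGD preincubated 15 min at room temperature with compound in 50 mM Tris-HCl pH 8, 0.01% Tween 20. Started with 1 mM NAD+ and 30 uM prostaglandin E2; NADH fluorescence (360/450 nm) read 5 times over 30-s intervals, last minus first.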
Numbers without * were called inactive; ? = inconclusive; & = joins results of further samples. % is set by controls: 0 for no effect and ±100 for the full control effect; potency is the fitted concentration of half-maximal effect. Some of the compounds tested. The share of hits here may be higher or lower than overall.

HPGD inh | SMILES
3% | OCCCN1CCN(CCOc2ccccc2-c2ccccc2)CC1
? | COc1ccc(N(C(=O)c2ccco2)S(=O)(=O)c2cccc([N+](=O)[O-])c2)cc1
-3% | Cn1c(-c2ccccc2)cnc1N
-8% | Cc1cc(C)n2[nH]c(=O)c(N=Nc3cccc(C(F)(F)F)c3)c2n1
? | CC1=C(n2nnc3ccccc32)C(c2ccccc2)C(C#N)=C(N)O1 (centres undefined)
-21% | C/C(NC1CCCC1)=C(/C#N)C(N)=O
-1% | COc1ccc(CC(=O)Nc2c3c(nn2-c2cccc(Cl)c2)CS(=O)(=O)C3)cc1
? | CN(C)S(=O)(=O)c1ccc(C(=O)Nc2nnc(SCc3cccc(F)c3)s2)cc1
-9% | COC(=O)[C@H](C)NC(=O)NCc1ccc(F)cc1
-17% | Cc1c(C(=O)NCc2ccccn2)sc2nc(-c3ccc(F)cc3)cn12
-8% | COc1cccc(NS(=O)(=O)c2c(C)n(C)c(=O)n(C)c2=O)c1
-8% | COCCn1c(NCc2ccc(C)cc2)nc2c1c(=O)[nH]c(=O)n2C
-24% | COc1ccc2cc(CN(CC3COCCO3)S(=O)(=O)c3c(C)cc(C)cc3C)c(=O)[nH]c2c1 (centres undefined)
-20% | COc1ccc(-n2nnnc2SC(C)C(N)=O)cc1 (centres undefined)
-18% | COC(=O)[C@@H](NC(=O)Nc1ccc(OC)cc1)C(C)C
-8% | O=C(N/N=C1\CCc2ccccc21)c1ccncc1
-28% | CCCCNC(=O)c1onc(CSc2ccc(OC)cc2)c1C(=O)O
-12% | Cc1noc(C(=O)NCc2ccco2)c1Cl
-7% | Cc1ccc(S(=O)(=O)CCc2nnc(NC(=O)C3CCCO3)s2)cc1 (centres undefined)
0% | Cc1ccc(-n2c(-c3ccccc3)nnc2-c2cccs2)cc1
-6% | O=C(c1ccc2c(=O)n(Cc3ccco3)c(=S)[nH]c2c1)N1CCN(Cc2ccccc2)CC1
-2% | Cc1nc(N2CCOCC2)nc(N2CCCCC2)c1[N+](=O)[O-]
? | CC(C)c1cc(C(=O)NNC(=S)NCc2ccco2)c(O)c(C(C)C)c1
-23% | COc1ccc(CNc2oc(COc3ccc(Cl)cc3)nc2C#N)cc1
-14% | O=C(COC(=O)Cc1ccsc1)NCC12CC3CC(CC(C3)C1)C2
? | N#Cc1c(NCCCO)nc(-c2ccco2)c2c1CCCC2
? | CCOC(=O)Cc1cc(-c2ccc(OC)cc2)nc2ccc3ccccc3c12
-10% | CNC(=S)Nc1cc(OC)ccc1OC
-21% | COc1ccc(S(=O)(=O)N2CCCC(C(=O)NCc3ccco3)C2)cc1Cl (centres undefined)
-8% | O=C1CC(NNc2ccccc2)C(=O)N1c1cccc(Cl)c1 (centres undefined)
-1% | CNC(=O)C(=O)NCC1OCCN1S(=O)(=O)c1ccc([N+](=O)[O-])cc1 (centres undefined)
-5% | CC(=O)NC(CC(=O)O)C(=O)NC(CCC(=O)O)C(=O)O (centres undefined)
-2% | CCc1ccccc1NC(=O)CSc1nc2ccccc2n1CC(=O)N(C)C
-5% | O=C(O)C1CCC(=O)N1Cc1ccccc1Cl (centres undefined)
-15% | Cc1cc(C(=O)COC(=O)C2COc3ccccc3O2)c(C)n1CC1CCCO1 (centres undefined)
? | Cc1ccsc1C(=O)OCC(=O)Nc1sccc1C(N)=O
-9% | COc1cc(C(=O)N2CCN(Cc3ccccc3C(F)(F)F)CC2)cc(OC)c1OC
-2% | CC(C)CCNC(=O)NC(=O)COc1ccccc1C#N
-6% | CCOc1cc(CO)ccc1OCC(=O)N1CCCCC1
-1% | O=C(Nc1cccc2ccccc12)c1ccccc1NS(=O)(=O)c1cccc2cccnc12
-26% | CC1CCCN(c2nc3c(c(=O)[nH]c(=O)n3C)n2Cc2ccccc2Cl)C1 (centres undefined)
-13% | CN(C)CCCN1C(=O)C(=O)/C(=C(/O)c2ccncc2)C1c1ccccc1 (centres undefined)
-18% | O=C(COC(=O)CCSc1ccc(Cl)cc1)NCc1ccccc1Cl
-1% | COc1ccc(NCc2nnc(SCC(=O)N3CCCc4ccccc43)o2)cc1
-1% | CC1(C)OC(=O)N(c2cccnc2)C1(C)O (centres undefined)
-3% | Cc1ccc(NC(=O)CN2CCN(CCN=CC3=C(O)CC(C)(C)CC3=O)CC2)cc1
8.9µM* | CCC(=O)Nc1nc(C)c(C(=O)N2CCCCC2)s1
-9% | Cc1cc(NC(=O)CC(C)(C)C)nc2c1c(=O)oc1ccccc12
-5% | Cc1ccc(NC(=O)CN2CCC3(O)CCCCC3C2c2ccc3c(c2)OCO3)c(C)c1 (centres undefined)
-13% | O=C(/C=C/Sc1ncn[nH]1)c1ccc(Cl)cc1
-26% | CCSC(N)=Nc1ccc(C(F)(F)F)cc1
-25% | Cc1ccc(CNc2ccc(Cl)cc2[N+](=O)[O-])cc1
-5% | O=C(O)CNCCc1ccccc1
-26% | Oc1ccc(/C=N/Nc2cc(N3CCCC3)nc(N3CCCC3)n2)cc1
-16% | COc1ccccc1C(=O)NC(=S)Nc1ccc(S(=O)(=O)N2CCN(C)CC2)cc1
-8% | COc1cc(NC(=O)CSc2nc3ccccc3cc2Cc2ccccc2)cc(OC)c1
14µM* | S=c1nc(C2CCCCC2)[nH][nH]1
? | Oc1ccccc1/C=N/Nc1cccc2cccnc12
-26% | CCCCOC(=O)Sc1nc2ccccc2o1
0% | Cc1cc(S(=O)(=O)Nc2ccccc2C)ccc1F

3 of the entries above in order of their number in HPGD inh, descending:
SMILES,HPGD inh
O=C1CC(NNc2ccccc2)C(=O)N1c1cccc(Cl)c1 (centres undefined),-8%
COc1ccc(S(=O)(=O)N2CCCC(C(=O)NCc3ccco3)C2)cc1Cl (centres undefined),-21%
CC1CCCN(c2nc3c(c(=O)[nH]c(=O)n3C)n2Cc2ccccc2Cl)C1 (centres undefined),-26%

As a working copy, six of the compounds above:
HPGD inh | SMILES
-26% | CC1CCCN(c2nc3c(c(=O)[nH]c(=O)n3C)n2Cc2ccccc2Cl)C1 (centres undefined)
-13% | CN(C)CCCN1C(=O)C(=O)/C(=C(/O)c2ccncc2)C1c1ccccc1 (centres undefined)
-18% | O=C(COC(=O)CCSc1ccc(Cl)cc1)NCc1ccccc1Cl
-1% | COc1ccc(NCc2nnc(SCC(=O)N3CCCc4ccccc43)o2)cc1
-1% | CC1(C)OC(=O)N(c2cccnc2)C1(C)O (centres undefined)
-3% | Cc1ccc(NC(=O)CN2CCN(CCN=CC3=C(O)CC(C)(C)CC3=O)CC2)cc1

Remaining list, next part:
HPGD inh | SMILES
-1% | CC(C)(C)C(=O)NC1=NCCS1
-26% | O=C1NC(=Nc2ccccc2)c2c1cccc2[N+](=O)[O-]
-14% | COc1ccc(-n2c(C)cc(SC)c(C(C)=O)c2=S)cc1
-13% | O=C(CCCOc1ccc(Cl)cc1Cl)N/N=C\C1CCCCC1
-13% | Cc1nn(-c2ccccc2)c2c1C1(C(=O)Nc3ccccc31)N1C(=N2)Sc2ccccc21 (centres undefined)
-7% | Cc1onc(-c2c(F)cccc2Cl)c1C(=O)NCc1ccco1
-14% | CNC(=O)/C(=C\C=C\c1ccccc1)NC(=O)c1ccc([N+](=O)[O-])cc1
-11% | COc1ccc(S(=O)(=O)Nc2ccc(S(=O)(=O)N3CCCCC3)cc2)cc1
7.1µM* | C=C1C(=O)C=C2CN(C(=O)c3ccccc3)[C@@](Cc3ccc(OC)cc3)(C(=O)OC)[C@@H]12
-2% | CC(=O)Nc1ccc(NC(=O)C(C)OC(=O)c2ccccc2Sc2ccccc2C#N)cc1 (centres undefined)
-13% | CNC(=S)NNC(=O)c1cccn(Cc2ccc(Cl)c(Cl)c2)c1=O
-15% | CC1(C)Cc2c(ccc3ccccc23)-c2nnc(-c3cccnc3)n21
? | CCOC(=O)c1ccccc1NC(=O)c1cn(-c2ccc(OC)cc2)c(=O)c2ccccc12
4% | O=C(NC(NC(=O)c1ccccc1)C(=O)c1ccccc1)c1ccccc1
-7% | CS(=O)(=O)N1CCCC(C(=O)N2CCc3ccccc3C2)C1 (centres undefined)
0% | COc1ccc(Br)cc1CNC(=O)CCN1C(=O)COc2ccccc21
4.5µM* | CSc1cccc(-n2c(C)cc(C(N)=O)c2C)c1
-19% | N#CC(c1ccc(F)cc1)c1ccc(C(=O)c2ccc(F)cc2)cc1 (centres undefined)
-5% | c1ccc(CNn2c(N3CCOCC3)nc3ccccc32)cc1
-21% | O=C(CSc1nnc(-c2ccco2)n1Cc1ccco1)NCc1ccccc1
1% | COc1ccc(NC(=O)Nc2ccccc2C(=O)N2CCCC2)cc1
-4% | CC(C)(C)n1nnnc1C(c1ccncc1)N1CCN(C2CCCCC2)CC1 (centres undefined)
25µM* | CC(C)Cc1csc(NC(=O)c2ccc(F)cc2)c1C(=O)O
? | Cc1cccc(S(=O)(=O)c2c(N)n(/N=C/c3ccccc3)c3nc4ccccc4nc23)c1
-14% | CCN(CC)CC(C)CNC(=O)CN1C(=O)CSc2ccc(S(=O)(=O)N3CCOCC3)cc21 (centres undefined)
-25% | COC(=O)c1ccc(CN(c2ccccn2)S(=O)(=O)c2ccccc2)cc1
-12% | CCOc1ccc(-n2cccc2C=O)cc1
-14% | COc1ccc(S(=O)(=O)N2CCC(C(=O)NCC3CCCO3)CC2)cc1C (centres undefined)
2% | Cc1ccc(-n2c(Cc3ccccc3)nnc2SCC(=O)NNC(=O)Cc2ccccc2)cc1
0% | CCOC(=O)N1N=C(c2ccc(C)cc2)CC1(O)C(F)(F)F (centres undefined)
14µM* | Cc1cc2nc(SCCOC(=O)Nc3ccc(Cl)cc3)nc(C)c2cc1C
2% | COc1cc(C2/C(=C(\O)c3ccc4c(c3)CC(C)O4)C(=O)C(=O)N2CCCn2ccnc2)ccc1O (centres undefined)
? | Nc1ccc2nc(-c3ccccc3)sc2c1
2% | COc1ccccc1C(c1nnnn1Cc1ccccc1)N1CCN(C2CCCC2)CC1 (centres undefined)
-16% | COc1ccccc1Nc1cc(C(=O)NCCCN2CCOCC2)c2ccccc2n1
-21% | O=C(CSc1nnnn1C1CCCCC1)NCc1cccc(C(=O)O)c1
-16% | CCOC(=O)c1c(C)oc2cc(Br)c(OC(=O)N3CCOCC3)cc12
-15% | CCC(C)NC(=O)C(Cc1ccccc1)NS(=O)(=O)c1cccc2nsnc12 (centres undefined)
-2% | CCOCCc1nnc(N)s1
-26% | Cc1cc(Oc2ccc(C)c(Cl)c2)nc(SCC(=O)c2ccccc2)n1
-1% | CCOc1ccc(N(CC(=O)NCc2ccccc2)S(C)(=O)=O)cc1
-26% | O=C(COC(=O)C1CCN(S(=O)(=O)c2ccc3c(c2)OCCO3)CC1)Nc1ccc(C(F)(F)F)cc1
-8% | O=C1NCCN1C(=O)N(c1ccccc1)c1ccccc1
-17% | COc1ccccc1NC(=O)CSc1nnc(-c2ccco2)o1
-7% | Cn1c(=O)c2cc(S(=O)(=O)NC(C(=O)Nc3cccc(F)c3)c3ccccc3)ccc2n(C)c1=O (centres undefined)
-10%&-16%&-22%&-29%&-15% | COC(=O)Nc1nc2ccc(C(=O)c3cccs3)cc2[nH]1
? | CCn1cc(C(=O)NCCc2ccccc2)c(=O)c2cc(F)c(N3CCN(C)CC3)cc21
-11% | Cc1ccc([N+](=O)[O-])cc1NC1CC(O)C(CO)O1 (centres undefined)
-7% | O=C(CN1CCN(c2ccc([N+](=O)[O-])cc2)CC1)Nc1nccs1
-14% | COc1cc(OC)c2ccc(=O)oc2c1C(CCN1CCOCC1)c1ccc(N(C)C)cc1 (centres undefined)
4% | CCN1CCN(CCNC(=O)c2cn(Cc3ccccc3F)nn2)CC1
-23% | CCOc1cc2nc3c4ccccc4n(C)c3nc2cc1OCC
-1% | O=S(=O)(Nc1ccc(O)c(CN2CCCCC2)c1)c1ccccc1
-17% | CCc1ccc(NC(=O)CSc2nc3n[nH]c(C)c3c(=N)n2-c2cccc(OC)c2)cc1
? | COc1cc2oc(-c3ccccc3)cc(=O)c2cc1OC
? | NC[C@@H]1O[C@H](C23CC4CC(CC(C4)C2)C3)Cc2c1ccc(O)c2O
-2%&-16% | COc1ccc2nc(N)sc2c1
-16% | O=C(NC(=S)NCCN1CCOCC1)c1ccc(Cl)cc1Cl
-11% | O=C(CN1C(=O)NC2(CCCCC2)C1=O)Nc1ccc(N2CCOCC2)cc1
-28% | CC(C)c1ccc(C(=O)NCCCc2ccccc2)cc1

Four structures already listed, ordered by formula weight, ascending:
HPGD inh | SMILES
? | COc1cc2oc(-c3ccccc3)cc(=O)c2cc1OC
-7% | O=C(CN1CCN(c2ccc([N+](=O)[O-])cc2)CC1)Nc1nccs1
-16% | O=C(NC(=S)NCCN1CCOCC1)c1ccc(Cl)cc1Cl
-26% | O=C(COC(=O)C1CCN(S(=O)(=O)c2ccc3c(c2)OCCO3)CC1)Nc1ccc(C(F)(F)F)cc1

The results go on.
HPGD inh | SMILES
-16% | CCN(CC)CCNC(=O)C1c2ccccc2C(=O)N(CCOC)C1c1ccc(F)cc1 (centres undefined)
-10% | CC(=NC1CC1)C1=C(O)c2ccccc2C1=O
-25% | CCCOc1ccc(-c2cn3ccccc3n2)cc1[N+](=O)[O-]
-4% | Cc1ccccc1Nc1nc(N)nc(CSc2nnc3sc4ccccc4n23)n1
-26% | COc1ccc(-c2cc(-c3cc(F)ccc3O)[nH]n2)cc1OC
-5% | CCOC(=O)c1c(-c2ccc(C)o2)csc1N
-19% | Cc1nnc(SCc2ccon2)n1-c1ccccc1
-6% | CC(=O)OC(Cn1nc(C)cc1C)c1ccccc1 (centres undefined)
-6% | COC(=O)c1cc(NS(=O)(=O)c2ccc(N3CCCCCC3)c([N+](=O)[O-])c2)cc(C(=O)OC)c1
? | CCCc1nc(NC2CCCCC2)c(C#N)c2c1COC(C)(C)C2
? | COc1ccc(/C=N/NC(=O)c2nc(Cl)c(Cl)c(N)c2Cl)cc1COc1ccc(F)cc1F
-12% | CCOc1ccc2nc(NC(=O)CCn3cccc3)sc2c1
